From PubChem
GIV Gai3 FP: blocks GIV peptide binding to rat Galpha-i3. P08753. Galpha-i3/FITC-GIV peptide fluorescence polarization, 90 min; stronger effect = lower value; scaled: aluminum fluoride 0%, vehicle 100%. percent of control (FP), % (test concentration not listed). 0.42% of 210,000 active. AID 1224905;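 active = replicate mean at 85% of control or lower, very high polarization wells dropped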;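 note: wells of about 15 µL received 100 nL stock; the first replicate is given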
Target sequence (P08753 whole entry, looked up): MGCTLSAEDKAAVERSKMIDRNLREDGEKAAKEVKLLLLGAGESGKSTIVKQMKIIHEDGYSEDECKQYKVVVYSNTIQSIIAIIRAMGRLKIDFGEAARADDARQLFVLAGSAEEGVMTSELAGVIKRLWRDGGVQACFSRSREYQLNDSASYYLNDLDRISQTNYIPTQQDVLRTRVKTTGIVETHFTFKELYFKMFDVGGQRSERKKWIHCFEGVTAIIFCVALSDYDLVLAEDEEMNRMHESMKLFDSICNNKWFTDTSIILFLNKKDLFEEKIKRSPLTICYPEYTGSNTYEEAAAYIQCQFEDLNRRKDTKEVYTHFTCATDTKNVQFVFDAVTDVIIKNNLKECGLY
Sa growth inh: S. aureus growth inhibition; S. aureus RN4220 growth, OD600, 20 h, 42 °C; stronger effect = lower value; relative growth, % (concentration not given with the values); 0.53% of 170,000 active;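 active = growth at 42 °C up to 50% and 20 or more points under that at 30 °C, or under 10% at both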;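 note: 300 nL library stock went into each well; scaled to the means of positive and negative controls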
HCMV UL50-53 inh: inhibitors of HCMV UL50-UL53 nuclear egress complex interaction | HTRF UL50-UL53 interaction, normalized percent inhibition | inhibition, % (concentration not given with the values) | 0.15% of 190,000 active | AID 1918969;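 active = both replicates at 50% or more, plus weaker picks with an unusually low signal ratio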;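 note: stock transfer was 100 nL into about 20 µL; 0% = negative control wells and 100% = wells with untagged competitor protein; inactives centre near -12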
Sa growth inh second temp: further read-out of Sa growth inh, marked with its call; relative growth, %; measured here: growth at 30 °C;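 optical density after 20 h as mean of two plates; 100% = untreated growth and lower means inhibition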
Starred values were filed as active, the others as inactive; . = no result given; & = joins results of further samples.

SMILES	GIV Gai3 FP	Sa growth inh	Sa growth inh second temp	HCMV UL50-53 inh
CC(=O)NC(=O)c1cnn(-c2ccccc2)c1N	102	90	88	-2
Cc1cc2oc(C(=O)Nc3ccc(S(=O)(=O)N(C)Cc4ccccc4)cc3)cc(=O)c2cc1C	98	94	89	-12
Cc1ccc(C(=O)CSc2nnc(-c3cccs3)n2C2CC2)s1	.	97	91	-23
COc1ccc(N2CC(NC(=O)C(c3ccccc3)c3ccccc3)CC2=O)cc1 (stereo not given)	98	110	89	.
CSC(=S)OC12CC3CC(CC(C)(C3)C1)C2	.	91	99	10
O=C(NC(c1ccccc1)c1ccccc1)c1ccc2c(c1)OCCO2	.	97	81	-4
O=S(=O)(NCCCN1CCOCC1)c1cc(C(F)(F)F)cc(C(F)(F)F)c1	103	121	99	5
Cc1ccc(CNC(=O)C2CCCN(S(=O)(=O)N3CC(C)CC(C)C3)C2)cc1 (stereo not given)	101	97	91	-16

Continued.
SMILES	GIV Gai3 FP	Sa growth inh	Sa growth inh second temp	HCMV UL50-53 inh
COc1ccccc1CNCc1c(C(=O)O)c(C)n(-c2ccccc2)c1C	109	.	.	-23
N#C/C(=C\c1ccccc1Cl)S(=O)(=O)c1ccccn1	108	97	95	2
Cc1cc(C)nc(NC(N)=NCCc2c[nH]c3ccccc23)n1	98	45	11	.
CC(NC(=O)c1ccc2nc[nH]c2c1)c1ccccc1 (stereo not given)	.	100	85	-10
O=[n+]1c2c(n([O-])c3ccccc31)CCC2	97	90	92	-94
Cc1ccc(C(=O)CCC(=O)NC2=NCCS2)cc1	122	102	97	.
COc1cc2ccccc2cc1C(=O)NCCC12CC3CC(CC(C3)C1)C2	.	102	80	-6
Cc1nccc2[nH]c(=O)c(C(=O)NC3CCC(C)CC3)cc12 (stereo not given)	104	128	88	.

Next compounds.
SMILES	GIV Gai3 FP	Sa growth inh	Sa growth inh second temp	HCMV UL50-53 inh
CCOC(=O)/C(C#N)=N/Nc1ccsc1C(=O)OC	106	89	86	-22
CCN1C(=O)c2cccc3c(S(=O)(=O)Nc4ccc(O)c(C(=O)O)c4)ccc1c23	96	97	91	-94
CCOC(=O)c1nc2ccccc2nc1NC(C)c1ccccc1 (stereo not given)	141	.	.	-8
Cc1nc2nc(CC(=O)O)[nH]n2c(=O)c1Br	101	.	.	-12
CC(Sc1nc(C2CC2)n(-c2ccccc2)n1)C(=O)Nc1ccnn1C(C)C (stereo not given)	.	86	86	-17
NCCNC(=O)c1ccco1	98	102	83	-1
CCOC(=O)N1CCN(S(=O)(=O)c2cc(Br)cnc2N)CC1	106	103	94	5
CCSc1ncc(Cl)c(C(=O)N2CCN(c3ccc(OC)cc3)CC2)n1	106	120	84	-15

(continued)
SMILES	GIV Gai3 FP	Sa growth inh	Sa growth inh second temp	HCMV UL50-53 inh
Cc1cc(C)cc(C(=O)Nc2ccc3c(c2)CC(=O)N3C)c1	107	.	.	-25
CC(=O)c1ccc(NC(=O)c2cn(-c3ccccc3)nc2-c2ccc(Br)cc2)cc1	108	88	75	-50
O=C1CSC(c2cccnc2)N1CCc1ccccn1 (stereo not given)	102	96	88	-15
O=C1C(=O)N(C2CCN(C(=O)c3ccccc3)CC2)CCN1Cc1ccccc1	98	.	.	-19
CCCC(=O)Oc1ccc(C2C(C(=O)OCC)=C(N)OC3=C2C(=O)CC(C)(C)C3)cc1 (stereo not given)	100	.	.	-21
Cc1oc(-c2cccc(Cl)c2)nc1CS(=O)(=O)CC(=O)NCc1ccccc1	102	104	85	.
NNC(=O)CN1CCCc2ccccc21	.	79	89	-16
COCCCn1c(=N)c(C(=O)NC2CCCC2)cc2c(=O)n3ccccc3nc21	105	108	91	-156

More records follow:
SMILES	GIV Gai3 FP	Sa growth inh	Sa growth inh second temp	HCMV UL50-53 inh
CC(C1CC1)N(Cc1ccccc1)S(=O)(=O)c1cn(C)c(=O)n(C)c1=O (stereo not given)	.	101	95	-2
O=C1C2CC=C(Cl)CC2C(=O)N1CN1CCN(CN2C(=O)C3CC=C(Cl)CC3C2=O)CC1 (stereo not given)	103	.	.	-26
Cc1cccc(C(=O)Nc2cccc3ccccc23)c1	104	93	78	-20
CCC(=O)c1cc(C)ccc1O	.	101	98	10
O=C(O)c1ccc(Nc2nc3ccccc3c3nncn23)cc1	101	116	87	-12
O=C(CCS(=O)(=O)c1cccs1)NC1CCCc2ccccc21 (stereo not given)	110	85	95	.
COc1ccc(Nc2nnc(-c3ccc(C)c(S(=O)(=O)N4CCOCC4)c3)c3ccccc23)cc1	110	105	91	-33
CCOC(=O)c1cc(-c2ccc(C)cc2)n(CCC(=O)Nc2nccs2)c1C	98	94	82	-18

(continued)
SMILES	GIV Gai3 FP	Sa growth inh	Sa growth inh second temp	HCMV UL50-53 inh
COC(=O)C1=C(C)NC2=C(C(=O)CC(C)(C)C2)C1c1ccccc1 (stereo not given)	98	92	88	-16
CC1CCc2noc(NC(=O)C(C)C)c2C1 (stereo not given)	99	.	.	-13
COc1ccc(Cc2nc3ccc(C(=O)NCCc4ccc(Cl)cc4)cc3o2)cc1	101	85	87	.
CCC(=O)N1CCc2cc(Br)cc(S(=O)(=O)CC(=O)OC)c21	105	95	88	2
O=c1cc(-c2ccccc2)sc(=O)[nH]1	.	95	88	-27
CCCCN(C)S(=O)(=O)c1csc(C(N)=O)c1	106	91	87	-14
COc1ccc(CCNC(=O)CCCN2C(=O)CCn3nc(C)cc32)cc1OC	104	.	.	1
Cc1c(N=Cc2c(O)n(C)c(=O)c3ccccc23)c(=O)n(-c2ccccc2)n1C	149	100	102	-18

Other compounds.
SMILES	GIV Gai3 FP	Sa growth inh	Sa growth inh second temp	HCMV UL50-53 inh
O=C(O)C1=C(C(=O)Nc2ccccc2)CCCC1	96	93	84	-18
COCCn1c(N)c(C(=O)N2CCCC2)sc1=S	.	77	78	-104
CN(Cc1ccccc1)c1nc2c(c(=O)n(C)c(=O)n2C)n1CCSc1nc2ccccc2o1	97	100	72	.
O=C(O)CCC(=O)Nc1cccc(O)c1	95	110	94	.
C=Cc1ccc(COC(=O)c2nnn(-c3ccc(C)cc3)c2C)cc1	99	.	.	-6
OCCNCCSc1nnc(-c2ccccc2)n1-c1ccccc1	.	83	93	1
CCCn1nnnc1CSc1nnc(-c2cccs2)n1C1CC1	.	91	87	-29
O=C(COC(=O)c1ccc2c(=O)n3c(nc2c1)CCC3)Nc1ccccc1	.	100	98	-12

More compounds follow.
SMILES	GIV Gai3 FP	Sa growth inh	Sa growth inh second temp	HCMV UL50-53 inh
O=C(Nc1ccc(N2CCN(Cc3ccccc3)CC2)cc1)c1ncoc1-c1cccs1	98	96	87	0
O=C(NC(=S)Nc1ccc(S(=O)(=O)N2CCOCC2)cc1)c1ccc(Br)o1	101	112	95	-13
Cc1ccc(N2C(=O)C(N3C(=O)c4ccccc4C3=O)C2c2ccc(N(C)C)cc2)cc1Cl (stereo not given)	98	98	94	.
O=S(=O)(Nc1ccc(-c2ccc(N3CCCC3)nn2)cc1)c1ccc(OC(F)(F)F)cc1	106	87	90	.
CCCOc1ccc(CNC(=O)CN2C(=O)CCn3nc(-c4cn(C)c5ccccc45)cc32)cc1	106	.	.	-13
O=C(O)c1cc(N2CCN(CC(=O)N3CCCCC3)CC2)ccc1NC(=O)C1CCCC1	100	.	.	-31
N#CC(C#N)=C(N)SCc1ccccc1	99	.	.	-5
CCOc1ccc(N2CC(NC(=O)c3ccc(S(=O)(=O)N4CCCC4)cc3)CC2=O)cc1 (stereo not given)	102	99	86	.

Other results.
SMILES	GIV Gai3 FP	Sa growth inh	Sa growth inh second temp	HCMV UL50-53 inh
CC1Cc2ccccc2N1C(=O)COC(=O)C1CCN(C(=O)Nc2ccccc2)CC1 (stereo not given)	.	97	85	-10
COc1ccc(C2CC(=O)C3=C(C2)Nc2ccccc2N(C(C)=O)C3c2ccccc2)cc1 (stereo not given)	102	88	75	.
CN1C/C(=C/c2cccc3ccccc23)C(=O)/C(=C/c2ccc3ccccc3c2)C1	126	86	98	.
COc1ccc2ncc3c(-c4ccccc4)nn(-c4ccc(C)c(C)c4)c3c2c1	109	105	103	14
CCN(CC)c1ccc(/C=c2\sc3ncnn3c2=O)cc1	57*	113	96	.
CCc1ccc2oc(-c3ccc(C)c(NC(=O)c4cc([N+](=O)[O-])ccc4N4CCOCC4)c3)nc2c1	110	119	86	-20
Oc1ccccc1/C=N/c1ncc(C(F)(F)F)cc1Cl	.	94	82	4
CCOC(=O)COc1ccc2c(=O)cc(-c3ccccc3)oc2c1	97	71	87	19&-30

Remaining list, next part:
SMILES	GIV Gai3 FP	Sa growth inh	Sa growth inh second temp	HCMV UL50-53 inh
CC(C)(C)NC(=O)[C@H]1CC[C@H]2[C@@H]3CC[C@H]4NC(=O)C=C[C@]4(C)[C@H]3CC[C@]12C	104	94&93	94&81	-29&-19
COc1cc(OC)cc(-c2nc3ccccc3c(=O)n2NC(=O)COc2ccc(Cl)cc2Cl)c1	105	.	.	0
CSc1nsc(SC)c1C(=O)NC(=O)N1CCSCC1	107	99	88	-34
CCN1CCC(NCc2ccccc2Cl)CC1	102	101	107	12
CC1(C)CC(=O)C2=C(C1)NC(=O)NC2c1ccc(Cl)cc1 (stereo not given)	.	106	99	5
CCCn1c(CCC(=O)N2CCc3ccccc32)nc2cccnc21	111	92	91	.
O=C1c2ccccc2S(=O)(=O)N1C(=O)c1cccc2ccccc12	106	.	.	2
CC(C)C(C)(C#N)NC(=O)CSc1nc(-c2ccccc2)c(-c2ccccc2)o1 (stereo not given)	.	105	110	-6

Carrying on.
SMILES	GIV Gai3 FP	Sa growth inh	Sa growth inh second temp	HCMV UL50-53 inh
CCN(CC)C(=O)Cn1c(S(=O)(=O)C(C)C)nc2ccccc21	101	84	94	-10
Cc1cc(C)c2sc(N3CCN(C(=O)C4CC4)CC3)nc2c1	98	104	95	.
CCc1ccc2c(c1)-c1ccccc1S(=O)(=O)N2CC(=O)N1CCCC1	98	.	.	-10
CCOC(=O)c1scc(-c2ccccc2)c1S(=O)(=O)Nc1cc(OC)cc(OC)c1	107	88	92	.
c1ccc(CCc2nnc3sc(-c4ccc5ccccc5n4)nn23)cc1	126	.	.	-33
CCOC(=O)c1nc(Nc2ccc(OC)c(Cl)c2)c2ccccc2n1	100	.	.	-27
COc1ccccc1-c1n[nH]n2c1nc(=O)c1ccccc12	98	104	84	-16
Cc1nn(C)c2c1c(-c1ccccc1)cc(=O)n2Cc1ccccc1F	100	90	107	.

(continued)
SMILES	GIV Gai3 FP	Sa growth inh	Sa growth inh second temp	HCMV UL50-53 inh
O=C(Nc1ccc(-c2noc(C3CCC3)n2)cc1)Nc1ccc(Cl)cn1	104	.	.	-19
C/C(=N\NC(=O)CN1CCCC1=O)c1ccc(NC2=NCCCS2)cc1	.	101	83	-35
CC(C)NC(=O)Cc1ccc(-n2c(=O)c3ccccc3n(CC(=O)NCc3ccccc3Cl)c2=O)cc1	107	.	.	-13
COc1ccccc1CNC(=O)CN1C(=O)c2cccnc2Oc2ccccc21	100	107	90	-4
CCOC(=O)c1c(C)n(CC)c2cc(Br)c(OC)cc12	.	85	84	-14
CN(c1ncnc2onc(-c3ccc(F)cc3)c12)C1CCCCC1	104	106	91	-36
COc1ccc(C2C(C(=O)/C=C/c3ccccc3)=C(O)C(=O)N2CCO)cc1 (stereo not given)	.	84	89	-49
Cc1ccc(C)c(NC(=O)c2nc(S(C)(=O)=O)ncc2N(Cc2ccc(C(C)(C)C)cc2)Cc2ccco2)c1	94	88	91	-28

(listing goes on)
SMILES	GIV Gai3 FP	Sa growth inh	Sa growth inh second temp	HCMV UL50-53 inh
CCOc1ccc2nc(SCC(=O)Nc3cc(Cl)ccc3OC)sc2c1	104	.	.	6
Cc1ccc(C(=O)Sc2n[nH]c(-c3cccs3)n2)cc1	.	102	96	-34
COc1ccc(OC)c(N2C(=O)C=CC2=O)c1	.	107	97	16
Cc1ccc(Cc2cnc(NC(=O)/C(C#N)=C\c3ccc(-c4ccc([N+](=O)[O-])cc4)o3)s2)cc1	103	.	.	-8
Cn1c(=O)c(=O)n(C)c2cc(S(=O)(=O)N3CCCC3C(=O)Nc3ccccc3F)ccc21 (stereo not given)	104	102	94	-16
CCC(=O)Nc1nc(-c2ccc3c(c2)CC(C)N3S(C)(=O)=O)cs1 (stereo not given)	99	99	88	3
Cc1cccc(-n2ccnc2SCC(=O)N2CCc3ccccc32)c1	104	114	83	.
CC(C)CN(CC(C)C)c1nnc(NC(=O)NCc2ccco2)s1	105	84	90	-28

Next section
SMILES	GIV Gai3 FP	Sa growth inh	Sa growth inh second temp	HCMV UL50-53 inh
COC(=O)c1ccc(CSc2nc3c([nH]c4ccccc43)c(=O)n2-c2cccc(Cl)c2)o1	97	103	83	.
COc1ccccc1CCNC(=O)C(=O)NCC(c1cccnc1)N1CCN(c2ccccc2)CC1 (stereo not given)	103	106	62	-9
Cc1nn(C)c(C)c1S(=O)(=O)N(CC(=O)Nc1ccc(F)cc1F)c1ccc(C(C)C)cc1	106	110	103	10
CCOc1ccc(CNCc2c(C(=O)O)c(C)n(Cc3ccc(F)cc3Cl)c2C)cc1	109	82	95	11
CCN1CCCC1CNC(=O)C(NC(=O)c1ccc(C23CC4CC(CC(C4)C2)C3)cc1)C(C)C (stereo not given)	106	99	98	.

Entries of single compounds as entered above.
Shown for Cc1ccc(Cc2cnc(NC(=O)/C(C#N)=C\c3ccc(-c4ccc([N+](=O)[O-])cc4)o3)s2)cc1 → GIV Gai3 FP: 103; Sa growth inh: .; Sa growth inh second temp: .; HCMV UL50-53 inh: -8
Shown for O=c1cc(-c2ccccc2)sc(=O)[nH]1 → GIV Gai3 FP: .; Sa growth inh: 95; Sa growth inh second temp: 88; HCMV UL50-53 inh: -27
